BasE inh = inhibitors of Acinetobacter baumannii siderophore enzyme BasE. purified BasE, fluorescence polarization binding displacement. inhibition, % (no concentration beside the values). 0.1% of 84,000 active;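 active means both replicates above 25% with normal brightness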;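 further: 0% = negative plate control signal and 100% = positive plate control signal; stock transfer was 100 nL into about 30 µL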
LANA-nucl inh = LANA-nucleosome interaction inhibition; FITC-LANA1-23 / chicken nucleosome fluorescence polarization; hits give low values; z-score (test concentration not listed); 0.3% of 51,000 active;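 active means both repeat wells score below -2 in polarization z-score versus plate sample wells, excluding overly bright wells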;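 further: 100 nL library stock added to about 30 µL; numbers are from one replicate; some results filed as inactive read as strong as hits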
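Assay system: purified chicken nucleosomes with FITC-labelled LANA N-terminal peptide (1-23) / Probe or stimulus: 50 nM FITC-LANA1-23 probe / Compound dosing: pin-transferred compound, 100 nL / Times: compound with peptide–nucleosome mix 10–45 min at room temperature / Technique: fluorescence polarization, 480 nm excitation, 535 nm parallel and perpendicular emission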
The depositor's hits bear a star; · = not tested or not shown; & = joins results of further samples.

Values run as follows: BasE inh	LANA-nucl inh
> COc1cccc(CN2C(=O)c3ccccc3C(C(=O)O)C2c2cccc(OC)c2O)c1 (stereo not given)
    0.3	0.92
> COc1ccc(NC(=O)c2ccc(Cl)c(S(=O)(=O)N3CCc4ccccc4C3)c2)cn1
    -4.6	·
> c1ccc(Nc2nc(Nc3ccccc3)nc(N3CCc4ccccc4C3)n2)cc1
    2.4	·
> COc1ccccc1NC(=O)c1c(C)oc2c1CCCC2
    0.5	-0.096
> C/C(=N\NC(=O)c1ccoc1C)c1ccc(Cl)s1
    -1.2	1.2
> Cn1c(Cc2nn(C)c(=O)c3ccccc23)nnc1SCc1ccc(Cl)cc1Cl
    4.2	-1.1
> Cc1noc(C)c1-c1nc(-c2c(Cl)cccc2Cl)no1
    0.8	·
> O=C(NC1CCCCCC1)c1ccc(Cl)c(S(=O)(=O)N2CCOCC2)c1
    1.3	0.48
> N#Cc1c(N)oc(-c2ccc3c(c2)OCO3)c1-c1ccc2c(c1)OCO2
    0.6	-1.1
> CSc1nc2cc(F)c(F)cc2n1C
    -1.6	-0.05
> CC1CCc2nc(NC(=O)Nc3cccnc3)sc2C1 (stereo not given)
    5.4	·
> C=CCn1c(=O)c2ccccc2n2c(SCC(=O)Nc3sc(C)c(CC)c3C(=O)OCC)nnc12
    -1.4	·
> COc1ccccc1NC(=O)NC(N)=O
    1.4	0.064
> C=CCn1c(=N)n(CC(=O)c2ccc(OC)cc2)c2ccccc21
    1.8	·
> O=C(CN1CCc2ccccc21)Nc1scc2c1c(=O)oc1ccccc12
    0.2	·
> COC(=O)c1sc2cc(-c3ccc(F)cc3)sc2c1C
    1.5	·
> CC(C)OC(=O)Cn1c(C2CC2)nc2ccccc2c1=O
    -4.5	1.4
> Cc1ccc(Cn2ccsc2=NC(=O)COC(=O)c2ccc3c(=O)n4c(nc3c2)CCC4)cc1
    -0.8	·
> N#Cc1c2n(c(=O)n(-c3ccc(Cl)cc3)c1=N)CCC2
    -2.2	·
> O=C1NNC(c2ccccc2)=N/C1=C\c1ccc(Cl)cc1
    5.6	0.023
> c1ccc(C2NCCn3cccc32)cc1 (stereo not given)
    0.1	0.17
> Cc1cc(NC(=O)CSc2nc3c(c(=O)n2-c2ccc(F)cc2)SC(C)C3)no1 (stereo not given)
    -0.4	0.35
> Cc1cc(=O)[nH]c(SCc2nc3ccccc3[nH]2)n1
    1.7	·
> C[N+](C)(C)C/C=C1/COCO1
    0.6	-0.26
> Cc1ccc(CC(=O)NC(C)C2CCCO2)cc1 (stereo not given)
    2.3	0.6
> CCOCCCn1c(CC(N)=O)n[nH]c1=S
    0.4	·
> COc1cc(CNCc2ccco2)cc(Cl)c1OC
    -1.0	-0.077
> O=C(C(F)F)N(Cc1ccccc1)Cc1ccccc1
    -1.0	-0.12
> CC1CC(C)CN(c2ncnc3c2cnn3C)C1 (stereo not given)
    0.2	-0.18
> CCOc1ccc(C(=O)NCC(=O)NC2CCN(Cc3ccccc3)CC2)cc1
    4.2	·
> Cc1cc(C(=O)CSc2ccc(S(=O)(=O)N(C)C)cn2)c(C)n1CCc1cccs1
    2.6	·
> COC(=O)c1ccc(S(=O)(=O)NCCNc2ncc(Cl)cc2C(F)(F)F)n1C
    -1.2	1.1
> COC(=O)/N=C/c1c(NCc2ccccc2)nc2c(C)cccn2c1=O
    -1.0	·
> Cc1ccc(C)n1-c1ccsc1C(=O)CC#N
    ·	-0.22
> O=C(O)CCc1ccc(-c2ccccc2)n1CCC(=O)O
    1.5	·
> CCN1C(=Nc2ccc(Cl)cc2)SC/C1=C\C(=O)OC
    2.3	·
> Cc1coc2cc3oc(=O)c(CCC(=O)NCCc4ccccc4)c(C)c3cc12
    0.1	1.3
> O=c1[nH]c(CN2CCN(CCO)CC2)nc2ccccc12
    2.2	·
> O=C1CCC(=O)N1CC(=O)N1CCCc2ccccc21
    -0.8	0.85
> O=C(/C=C/c1ccc2ccccc2n1)N1CCN(S(=O)(=O)c2ccc3c(c2)OCCCO3)CC1
    0.5	·
> c1ccc(-c2ccc3c(c2)c2c4n3CCN=C4CCC2)cc1
    -7.5	0.42
> CCCn1c(C(=O)OC)cc2c1ccn2C
    5.2	-0.44
> CC(C)(C)OC(=O)NCC12C=CC(O1)C1C(=O)N(Cc3ccccc3)C(=O)C12 (stereo not given)
    4.9	-0.35
> COC(=O)C1SCCN1C(=O)c1cc(-c2ccc(Cl)cc2)oc1C (stereo not given)
    1.8	·
> CC1CN(C(=O)C(C)OC(=O)c2ccc3ncsc3c2)CC(C)O1 (stereo not given)
    4.8	·
> CC1Cc2cc(C(=O)Cn3nnc4ccccc4c3=O)ccc2N1S(C)(=O)=O (stereo not given)
    -0.9	·
> O=C(Cn1cc(S(=O)(=O)Cc2ccccc2)c2ccccc21)Nc1nccs1
    2.5	-0.35
> C=CCn1c(CSc2nc3ccccc3s2)nnc1SCC(=O)NCc1ccco1
    0.4	0.19
> O=C(COC(=O)COc1ccc(Cl)cc1)NC1CC1
    1.8	·
> CN(C)S(=O)(=O)c1ccc(C(=O)NN2CC(=O)NC2=O)cc1
    0.4	·

Additional records.
Values run as follows: BasE inh	LANA-nucl inh
> N#CCC(=O)N1CCCCCC1
    0.0	0.055
> COc1ccc(-c2cc(C(=O)NN)n(-c3ccccc3)n2)cc1
    0.2	·
> Cc1csc(SCC(=O)Nc2cc(C(C)(C)C)no2)n1
    -0.7	·
> CC(C)CNC(=S)Nc1ccccc1
    -1.4	0.62
> O=c1cc(O)c2sc3nc(-c4ccncc4)ccc3c2[nH]1
    3.2	-0.024
> CC(Nc1ccc2c(c1)OCCO2)C(=O)NC1CCCC1 (stereo not given)
    0.8	·
> COc1ccc(CNC(=O)C(C)N2CCN(c3ccc(C(F)(F)F)cn3)CC2)cc1 (stereo not given)
    1.0	·
> N=C1S/C(=C\c2ccc(-c3ccccc3F)o2)C(=O)N1c1ccc2c(c1)OCO2
    0.8	-0.42
> CN(C)CCN=c1cc(-c2ccccc2)oc2ccc(Cl)cc12
    -2.2	·
> CN(Cc1ccccc1)S(=O)(=O)c1ccc2c(c1)OCC(C(=O)N1CCCC1)O2 (stereo not given)
    4.7	0.17

Structural class, those above with fluorine
Values run as follows: BasE inh	LANA-nucl inh
> CSc1nc2cc(F)c(F)cc2n1C
    -1.6	-0.05
> COC(=O)c1sc2cc(-c3ccc(F)cc3)sc2c1C
    1.5	·
> Cc1cc(NC(=O)CSc2nc3c(c(=O)n2-c2ccc(F)cc2)SC(C)C3)no1 (stereo not given)
    -0.4	0.35
> O=C(C(F)F)N(Cc1ccccc1)Cc1ccccc1
    -1.0	-0.12
> COC(=O)c1ccc(S(=O)(=O)NCCNc2ncc(Cl)cc2C(F)(F)F)n1C
    -1.2	1.1
> COc1ccc(CNC(=O)C(C)N2CCN(c3ccc(C(F)(F)F)cn3)CC2)cc1 (stereo not given)
    1.0	·
> N=C1S/C(=C\c2ccc(-c3ccccc3F)o2)C(=O)N1c1ccc2c(c1)OCO2
    0.8	-0.42

Further compounds follow.
Values run as follows: BasE inh	LANA-nucl inh
> O=C(NCCN1CCCCCC1)c1cnc2sc(N3CCOCC3)nn2c1=O
    -5.0	1.6
> COc1ccc(-c2onc(C)c2-c2ccc3c(c2)OCCO3)c(O)c1
    5.5	·
> CNC(=O)CSc1nc2ccc(C)cc2[nH]1
    0.3	·
> O=C(CC1COc2ccccc2O1)NC1CCCCC1 (stereo not given)
    -0.8	0.17
> C=C(C)Cn1c(C2CC(=O)N(c3cccc(SC)c3)C2)nc2ccccc21 (stereo not given)
    -0.4	·
> O=C(Cc1nc(O)cs1)c1ccccc1
    3.9	0.087
> C/C=C(\C)CN1CCN(Cc2ccccc2)CC1
    0.4	0.34
> CCSC1=N/C(=C\c2ccc(C(C)C)cc2)C(=O)S1
    2.0	·
> CCCn1c(O)c(C=Nc2c(C)n(C)n(-c3ccccc3)c2=O)c(=O)[nH]c1=S
    1.3	·
> CC(=O)O[C@]1(C(C)=O)CCC2C3C[C@H](C)C4=CC(=O)CC[C@]4(C)C3CC[C@@]21C (stereo not given in full)
    1.5	0.31&-0.57
> Cc1ccc(-c2nn(CO)c(=S)o2)cc1
    -1.2	-0.12
> COc1cccc(NC(=O)c2oc3ccccc3c2C)c1
    -0.8	-0.72
> N#Cc1ccccc1C(C#N)c1ccccc1 (stereo not given)
    ·	-0.29
> N#Cc1cccc(S(=O)(=O)NC2CC2)c1
    0.1	·
> OCCN(Cc1ccccc1)CC1CC2C=CC1C2 (stereo not given)
    -3.1	0.35
> COc1ccc2[nH]c(=O)c(CN(Cc3ccc4c(c3)OCO4)Cc3nnnn3CCc3ccccc3)cc2c1
    2.0	-0.53
> CN(C(=O)CN1C(=O)c2cc(Cl)c(Cl)cc2C1=O)C1CCS(=O)(=O)C1 (stereo not given)
    -2.4	·
> N=c1c2cnn(-c3ccccc3)c2ncn1/N=C/c1ccc(Cl)cc1
    0.8	·
> COC(=O)C1CCCN1S(=O)(=O)c1ccccc1N (stereo not given)
    2.0	0.77
> CC(C)(C)C(=O)COC(=O)c1ccc(C#N)cc1
    0.7	·

Rewritten as a markdown table: entries from further up
| mol | BasE inh | LANA-nucl inh |
| --- | --- | --- |
| N=c1c2cnn(-c3ccccc3)c2ncn1/N=C/c1ccc(Cl)cc1 | 0.8 | · |
| COC(=O)C1CCCN1S(=O)(=O)c1ccccc1N (stereo not given) | 2.0 | 0.77 |

Later entries
Values run as follows: BasE inh	LANA-nucl inh
> Cc1cccc(OCOc2cccc(C)c2)c1
    -13	-0.32
> Cn1c(N=Nc2c(O)[nH]c(=O)[nH]c2=O)nc2c1c(=O)n(Cc1ccc(Cl)cc1)c(=O)n2C
    2.4	-0.29
> O=c1c2ccccc2c(-c2n[nH]c(=S)o2)nn1Cc1ccccc1
    5.9	·
> CCCCCn1c(SCC(=O)OCC)nc2cc(C(=O)N3CCC(C(N)=O)CC3)ccc2c1=O
    2.1	0.21
> O=C(CCc1ccccc1)Nc1ccc(NC(=O)c2ccco2)nc1
    -3.0	0.069
> Cc1ccc(C(=O)NC(=O)CSc2nnnn2-c2ccccc2)cc1
    0.9	0.26
> Cc1ccc(C)c(NS(=O)(=O)c2ccc3c(c2)c(=O)n(C)c(=O)n3C)c1
    -0.6	-0.073
> Nc1ncc(N=Nc2cc(C(=O)O)ccc2Cl)s1
    2.8	·
> COC(=O)c1sccc1-c1ccc(-c2ccn(S(=O)(=O)c3ccc(Cl)cc3)n2)o1
    -0.4	·
> CS(=O)c1nc(-c2cccs2)cc(-c2ccccc2)c1C#N (stereo not given)
    -2.1	0.9
> Cc1cc(C)n(-c2ccc(C(=O)OCC(=O)C(C)(C)C)cc2)n1
    -0.5	·
> CCn1c(CSc2nc3ccccc3s2)nnc1SCC(=O)OC(C)(C)C
    -0.6	·
> CN(C)CCCNc1nc(-c2ccccc2)c2c(c1C#N)CC(C)(C)OC2
    -1.8	0.64
> CC(C)NC(=O)Cn1cc(C(=O)C(C)C)c2ccccc21
    -1.2	-1.6
> O=C1/C(=C/c2c(N3CCCCC3)nc3ccccn3c2=O)SC(=S)N1Cc1ccco1
    0.4	2.3
> S=C(Nc1ccccc1)N1N=C(c2cccs2)CC1c1cccs1 (stereo not given)
    -3.3	0.36
> O=C(O)c1ccc2c3c(ncnc13)-c1ccccc1C2=O
    18	-0.56
> Nc1nc(SCC(=O)Nc2ccccc2C(=O)Nc2ccccc2)n[nH]1
    0.0	·
> CCn1c(C)c(CCC(=O)NCc2ccccn2)c(=O)n2nc(-c3ccccc3OC)cc12
    0.2	1.6
> O/N=C/c1cn(CC(O)COc2cccc3cccnc23)c2ccccc12 (stereo not given)
    0.1	-0.054
> c1csc(NC2=NCCC2)n1
    -2.4	·
> O=C(Nc1ccc(F)cc1)C(NCc1ccco1)c1ccccc1 (stereo not given)
    1.1	·
> C=CCNC1CCS(=O)(=O)C1 (stereo not given)
    0.5	-0.84
> Cn1c(CNS(=O)(=O)c2ccc(F)cc2)nnc1SCc1ccccc1
    -1.7	0.029
> Cc1cc(-c2ccc(S(=O)(=O)Nc3cccc(Br)c3)cc2)on1
    -0.7	-0.81
> COc1ccc(Cn2c(=O)[nH]c3cc(C(=O)NC4CCCC4)ccc3c2=O)cc1
    0.3	0.19
> Cc1cccc(Oc2coc3cc(O)ccc3c2=O)c1
    1.1	-0.091
> O=C(NN1CC(=O)N(c2ccccn2)C1=O)C(c1ccccc1)c1ccccc1
    -0.2	0.59
> CCCC12CN3CC(CCC)(CN(C1)C3c1ccc3c(c1)OCO3)C2=O (stereo not given)
    2.4	-0.85
> OC1(C(F)(F)F)CC(c2cc3ccccc3o2)=NN1 (stereo not given)
    -0.2	0.67
> O=C(CSc1nccn1-c1ccc(Cl)cc1)NCc1ccco1
    -2.1	0.9
> CCOc1ccc(/C=C2/C(=O)N(C)C(=S)N2CC(=O)OC)c(OCC)c1
    -3.7	·
> COC(=O)c1cc(=O)n(C)c(=Nc2ccc(F)c(F)c2)s1
    3.2	-0.33
> CCn1nnnc1SCCSc1nnnn1CC
    4.2	-1.2
> CCc1nc2cc(Cl)c(Cl)cc2nc1CC
    0.1	0.54
> Cn1c(Cc2ccsc2)nnc1Sc1nc2ccc(Cl)cc2s1
    0.5	·
> O=C1C2=C(NC(=S)NC2c2ccccc2)c2ccccc21 (stereo not given)
    2.2	·
> CC(Sc1ncnc2sc3c(c12)CCC3)C(N)=O (stereo not given)
    1.6	·
> COc1cc(C(=O)Oc2ccc3c(c2)OCO3)ccc1OCc1c(C)noc1C
    1.6	·
> CCn1c(C)nc2cc(Cl)ccc21
    0.3	0.95
> c1ccc(-n2c(SCCN3CCOCC3)nnc2-c2ccncc2)cc1
    2.3	-0.74
> CC(=O)NC(C)C1CC2CCC1C2 (stereo not given)
    1.9	·

This is a subset. The share of hits here may be higher or lower than overall.
